Bioassay records from PubChem BioAssay.
Mtb H37Rv = Mycobacterium tuberculosis H37Rv growth inhibition, cell based, confirmatory dose response (AID 1949); most inactive calls were filed without a number and no value below 0 was filed; one-dose inhibition, % at 10 µg/mL; IC50 in µg/mL for titrated hits; 100,000 tested, 1.6% active;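 active = confirmed in a dose series; inconclusive = about 50% or more but not retested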;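 also: bacteria grown 7 days with compound before Alamar blue readout; 0% = untreated bacteria and 100% = reference antibiotic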
An asterisk follows results filed as active; i = inactive; ? = inconclusive. These rows are one share of the data. The share of hits here may be higher or lower than overall.

A first look (5 entries):
Structure | Mtb H37Rv
COc1cccc(CNC(=S)Nc2ccc(S(N)(=O)=O)cc2)c1 | i
O=C(Cc1cccs1)Nc1ccc(-c2nnc(-c3ccco3)o2)cc1 | i
O=C(NCCCNC(=O)NC1CCCCC1)NC1CCCCC1 | i
CCCC(=O)c1cc(F)c(N2CCN(C(=O)OCC)CC2)cc1C | i
CCC(C)c1ccc(OCCCCN2CCN(C)CC2)cc1 (stereo not given) | i

The list itself, from the first entry:
Structure | Mtb H37Rv
COc1cccc(CNC(=S)Nc2ccc(S(N)(=O)=O)cc2)c1 | i
O=C(Cc1cccs1)Nc1ccc(-c2nnc(-c3ccco3)o2)cc1 | i
O=C(NCCCNC(=O)NC1CCCCC1)NC1CCCCC1 | i
CCCC(=O)c1cc(F)c(N2CCN(C(=O)OCC)CC2)cc1C | i
CCC(C)c1ccc(OCCCCN2CCN(C)CC2)cc1 (stereo not given) | i
O=C(c1ccncc1)N1CCN(CC2CC=CCC2)CC1 (stereo not given) | i
Cn1nnnc1SCC(=O)c1ccc(O)c(O)c1 | i
O=C(CCc1ccccc1)NN1C(=O)C2CCCCC2C1=O (stereo not given) | i
COc1ccc(C(=O)Nc2ccc(N3CCN(Cc4ccccc4)CC3)cc2)cc1 | i
COc1ccc(NC(=O)c2c(F)c(F)c(F)c(F)c2F)cc1Cl | i
Cc1cccc(NC(=O)CSc2nnc(-c3ccncc3)n2-c2ccc(C)c(C)c2)c1 | i
Cc1ccccc1CNC(=O)C(=O)Nc1ccccc1 | i
Cc1c(C=O)c2ccccc2n1CC(=O)N1CCCc2ccccc21 | 1%
COc1cc(CN2CCN(S(C)(=O)=O)CC2)ccc1OCc1ccccc1 | i
Cc1cc(C)cc(NC(=O)c2ccccc2OCc2ccccc2F)c1 | 13%
CCN(CC)C(=O)CSc1nc2c(c(=O)n1Cc1ccccc1)C1(CCCC1)Cc1ccccc1-2 | i
CC(C)(C)c1ccc(C(=O)Nc2nccs2)cc1Br | 0.37µg/mL*
Cc1ccc(C(=O)Nc2ccc(Cl)c(Cl)c2)c(C)c1 | i
S=C(Nc1ccc(Br)cc1)N1CCOCC1 | i
COc1ccc(S(=O)(=O)Nc2c(C)cccc2C(C)C)cc1 | 14%
CCC(=O)Nc1ccc(-c2nnc(SCC(=O)NC3CCCCC3)n2C)cc1 | i
O=C(CCCOc1ccccc1)Nc1ccccc1-c1ccccc1 | 3%
COc1ccc(CCNC(=S)NC(=O)c2ccccc2)cc1C | 2%
Cc1cccc(NSc2ccccc2[N+](=O)[O-])c1 | 10%
Nc1nc(COc2ccc3ccccc3c2)cs1 | i
COc1ccccc1N1CCN(C(=O)CSc2nc3ccccc3s2)CC1 | i
Cc1cccc(NC(=O)CN(C2CCCCC2)S(=O)(=O)c2ccc(Cl)cc2)c1C | 8%
O=C(NC(Cc1ccccc1)C(=O)N1CCN(c2ccccn2)CC1)c1ccco1 (stereo not given) | i
O=C(CCc1ccccc1)Oc1ccc2c(=O)c(Oc3ccccc3Br)coc2c1 | i
COc1ccc(S(=O)(=O)NCC2CCCO2)cc1C (stereo not given) | i
COc1ccccc1-n1c(SCc2ccc3c(c2)OCO3)nc2sc3c(c2c1=O)CCC3 | i
CC(=O)c1ccc(N2CCN(C(=O)c3ccc4c(c3)OCO4)CC2)cc1 | i
COc1ccc(-c2cc(=O)oc3cc(OCC(=O)Nc4ccccc4Cl)ccc23)cc1 | 6%
CCOC(=O)CCc1c(C)nc(SCC(=O)c2ccc3c(c2)OCO3)c(C#N)c1C | i
O=Cc1ccc(-c2cccc([N+](=O)[O-])c2)o1 | 1%
CCOc1ccc(C(=O)NC(=S)Nc2ccccc2C(N)=O)cc1Br | i
CCN(CC)S(=O)(=O)C1CCS(=O)(=O)C1 (stereo not given) | 2%
O=c1c2ccccc2nc(-c2ccc(Cl)cc2)n1C1CCS(=O)(=O)C1 (stereo not given) | i
NC(=O)c1ccc(-n2nnnc2SCc2ccccc2)cc1 | i
CCOC(=O)Nc1ccc(NC(=O)c2ccc(C)cc2)cc1 | i
O=C(Cc1ccccc1[N+](=O)[O-])Nc1ccccc1C(=O)NC1CCCCC1 | 1%
Cc1ccc(NC(=O)c2cc(NC(=O)c3ccccc3)ccc2N2CCCCC2)cc1 | i
CCOC(=O)N1CCN(c2ncnc3c2cnn3-c2ccc(C)cc2C)CC1 | 50%
O=C(Cc1cccs1)N(Cc1ccccc1)Cc1ccccc1 | i
O=C(NC(=S)Nc1ccc2c3c(cccc13)CC2)c1cncc(Br)c1 | i
CCC(CC)C(=O)Nc1cccc(-c2nnc(-c3ccc(C)cc3)o2)c1 | i
CCOC(=O)c1ccccc1NC(=O)CN(c1ccc(OC)c(Cl)c1)S(C)(=O)=O | i
Cc1cc(=O)[nH]c(SCCOc2cccc(Oc3ccccc3)c2)n1 | 6%
COc1ccc(C(=O)N2CCN(CCCc3ccccc3)CC2)cc1 | i
CCOC(=O)c1cc2c(=O)n3cccc(C)c3nc2n(C2CCCC2)c1=N | i
CNC(=O)COc1ccc(Nc2nnc(-c3ccc(OC)cc3)c3ccccc23)cc1 | i
CCOc1ccc(C2C(C(=O)OC3CCCC3)=C(C)NC3=C2C(=O)CCC3)cc1 (stereo not given) | 31%
CCOC(=O)NC(=S)NCc1ccco1 | i
CCOc1ccc(C(=O)Nc2ccc(S(=O)(=O)N3CCCC3)cc2)cc1 | i
COC(=O)C1=C(C)Nc2ncnn2C1c1cccc(OC)c1OC (stereo not given) | i
O=C(NCCSC1CCCCC1)c1ccc(Cl)c(S(=O)(=O)N2CCOCC2)c1 | i
O=C(CCCCCN1C(=O)c2ccccc2C1=O)Nc1nnc(C2CCCCC2)s1 | i
COc1ccc(OC)c(NC(=O)c2c(NC(=O)CNCc3ccco3)sc3c2CCC3)c1 | i
CC(C(=O)Nc1ccc(Br)cc1)N1C(=O)C2CC=C(Cl)CC2C1=O (stereo not given) | i
Clc1ccc(OCCCNCc2ccccc2)c(Br)c1 | ?

(listing goes on)
smiles	Mtb H37Rv
Cc1csc(NC(=O)Nc2ccc(Cl)cc2)n1	i
O=[N+]([O-])c1cccc(/C=C/c2ccccc2)c1	i
CCN(CC)c1ccc(NC(=S)NCCc2ccc(OC)c(OC)c2)cc1	1.7µg/mL*
c1cncc(-c2noc(CCC3CCCC3)n2)c1	0%
Cc1cc(Cl)ccc1NC(=S)NC1CCCCCC1	i
CN(CC(=O)Nc1ccc2c(c1)OCCO2)S(=O)(=O)c1ccc2ccccc2c1	i
CCN(CC)S(=O)(=O)c1cccc(-c2nnc(-c3cccc([N+](=O)[O-])c3)o2)c1	5%
COc1ccc(Cc2nnc(NC(=O)c3ccccc3F)s2)cc1	4%
Cc1cc2nc(Nc3ncc4c(n3)CC(C)(C)CC4=O)nc(C)c2cc1C	1%
CCN1C(=O)C(CC(=O)NC2CCCCC2)N(CC)C1=O (stereo not given)	i

Given as labelled records: part of the list above
> Cc1cc(Cl)ccc1NC(=S)NC1CCCCCC1
  Mtb H37Rv: i
> CN(CC(=O)Nc1ccc2c(c1)OCCO2)S(=O)(=O)c1ccc2ccccc2c1
  Mtb H37Rv: i
> COc1ccc(Cc2nnc(NC(=O)c3ccccc3F)s2)cc1
  Mtb H37Rv: 4%
> Cc1csc(NC(=O)Nc2ccc(Cl)cc2)n1
  Mtb H37Rv: i

Carrying on.
smiles	Mtb H37Rv
Clc1cccc(-c2nc(-c3ccncc3)no2)c1	i
C=CCn1c(Sc2ccc(C(F)(F)F)cc2[N+](=O)[O-])nnc1-c1ccc(OC)cc1	i
S=C(NCC1CCCO1)Nc1cccc(Cl)c1 (stereo not given)	2%
Cc1ccc(-c2nnc(SCC(=O)O)o2)cc1	i
O=c1[nH]c2ccc(NCc3cccs3)cc2[nH]1	i
CCOc1ccc(S(=O)(=O)Nc2ccc(F)c(Cl)c2)cc1	0%
CCCCc1ccc2nc(NC(=O)c3ccc(F)cc3)sc2c1	i
COCCCNCCCOc1ccc(C(C)C)c(C)c1	i
Cc1ccc(S(=O)(=O)N(CC(=O)Nc2cccc(N(C)S(C)(=O)=O)c2)c2ccc(C)cc2C)cc1	i
CCOc1ccc(C(=O)NCC2CCCO2)cc1 (stereo not given)	i
CC1CC(C)CN(S(=O)(=O)c2ccc(N)cc2)C1 (stereo not given)	i
COc1ccc(CCNC(=O)Nc2cccc(F)c2)cc1	i
COc1ccc(S(=O)(=O)n2cccn2)cc1	i
COc1cccc(N(CC(=O)N2CCC(C(N)=O)CC2)S(=O)(=O)c2ccccc2)c1	i
CC1(C)C(=O)C2(CCCC2)C(=O)OC1c1ccc(Br)cc1 (stereo not given)	i
Cc1ccc(Cl)cc1N1CCN(CC(O)COc2ccccc2)CC1 (stereo not given)	40%
O=C(CCSc1ccc([N+](=O)[O-])cc1)Oc1ccc(Br)cc1	i
CCOC(=O)c1c(N)sc2c(O)c(Br)ccc12	i
CCc1ccc(OCCCn2nnc3ccccc32)cc1	?
Cc1cccc(OCc2nc(-c3cccnc3)no2)c1	1%
Cc1ccc(S(=O)(=O)Nc2cnc3ccccc3c2)c(C)c1C	i
Cc1ccc2cccc(OCCOc3ccccc3-c3ccccc3)c2n1	21%
Nc1ccc(S(=O)(=O)NCCO)cc1	i
CCNC(=S)NS(=O)(=O)c1ccc(CC)cc1	i
COC(=O)c1sc2cc(NC(=S)NNC(=O)c3cn(C)c4ccccc34)ccc2c1Cl	i
CCN(c1ccccc1)S(=O)(=O)c1ccc(NC(=O)COc2cc(C)ccc2C)cc1	i
CCOC(=O)N1CCN(C(=O)CNC(=O)Cc2ccc(Cl)cc2)CC1	i
COc1ccccc1OCC(=O)Nc1cccc(NC(=O)C23CC4CC(CC(C4)C2)C3)c1	i
Cn1cnnc1-c1cccc(NS(=O)(=O)c2ccc(N3CCCC3=O)cc2)c1	i
Cc1ccc(OCc2ccc(C(=O)N3c4ccccc4CC3C)cc2)cc1C (stereo not given)	i
O=C(OCc1nc2ccccc2s1)c1ccco1	?
CCCCC(=O)Nc1ccc(NC(=S)NC(=O)CC23CC4CC(CC(C4)C2)C3)cc1OC	?
CCCN1C(=O)c2ccc(C(=O)Nc3ccc(O)cc3C(=O)O)cc2C1=O	i
CC1=C(C(=O)Nc2cc(C)ccn2)C(c2cccc(Cl)c2Cl)C2=C(CCCC2=O)N1 (stereo not given)	i
CC(C(=O)NCc1ccncc1)N(c1ccc(Oc2ccccc2)cc1)S(C)(=O)=O (stereo not given)	i
O=C(c1ccncc1)N1CCN(C(=O)c2ccccc2F)CC1	i
COC(=O)NCc1ccc(S(=O)(=O)N2CCOCC2)cc1	i
C=CCn1c(N)cc(=O)nc1SCC(=O)Nc1ccc(Cl)cn1	i
Cc1ccccc1C(=O)N1CCN(c2ccc(NC(=O)c3ccc(OC(C)C)cc3)cc2)CC1	i
Cc1cccc(-c2nc3sc4c(c3c(=O)o2)CCCC4)c1	14%
Cn1c(=O)c2[nH]c(CNCCc3ccccc3)nc2n(C)c1=O	i
O=C(Cn1cnc2scc(-c3ccc(F)cc3)c2c1=O)OCc1ccccc1	44%
O/N=C/c1ccc(OCc2ccc(Cl)c(Cl)c2)cc1	9%
O=C(Nc1ccccc1C(F)(F)F)C(Cl)(Cl)Cl	i
COc1ccc(C2(CNC(=O)c3ccc([N+](=O)[O-])cc3)CCOCC2)cc1	i
O=C(COc1ccc2ccccc2c1)Oc1ccccc1[N+](=O)[O-]	i
N#Cc1c(NC(=O)c2cnn3c(C(F)(F)F)cc(-c4ccco4)nc23)sc2c1CCC2	i
COC(=O)CN1C(=S)N(c2ccc(Cl)cc2)C(=O)C1CC(=O)Nc1ccc(Cl)cc1 (stereo not given)	i
Cc1ccc(-c2cc(C(=O)NC3=NCCS3)c3cc(Br)ccc3n2)o1	4%
COc1cc(C=NN2CCN(C3c4ccccc4-c4ccccc43)CC2)ccc1O	i

Some of these compounds in order of length of the SMILES, smallest number first:
smiles	Mtb H37Rv
O=C(Nc1ccccc1C(F)(F)F)C(Cl)(Cl)Cl	i
COc1ccc(C2(CNC(=O)c3ccc([N+](=O)[O-])cc3)CCOCC2)cc1	i
COC(=O)CN1C(=S)N(c2ccc(Cl)cc2)C(=O)C1CC(=O)Nc1ccc(Cl)cc1 (stereo not given)	i

The list goes on.
smiles	Mtb H37Rv
COc1ccc(S(=O)(=O)Oc2cc(C)cc(C)c2)cc1OC	i
O=C(C1COc2ccccc2O1)N1CCN(Cc2ccc3c(c2)OCO3)CC1 (stereo not given)	i
O=C(O)C1CC(=O)N(c2ccc(F)cc2)C1 (stereo not given)	i
CCOC(=O)c1c(NC(=O)COc2ccc(F)cc2)sc(C(=O)Nc2ccccc2C)c1C	i
Cc1cc2nc(SCc3ccccc3C)nc(C)c2cc1C	2%
CCOc1c(Br)cc(C2C(C(=O)Nc3ccccc3OC)=C(C)Nc3nnnn32)cc1OC (stereo not given)	i
Cc1ccc2[nH]c(=O)c(=O)[nH]c2c1C	0%
CCCOc1cccc(C(=O)Nc2ccccc2C(=O)O)c1	i
Cc1sc(NC(=O)C2CCCCC2C(=O)O)c(C(=O)OC(C)C)c1C (stereo not given)	i
COc1ccc(NC(=O)c2ccco2)cc1NC(=O)CC12CC3CC(CC(C3)C1)C2	2%
S=C(NCCCn1ccnc1)Nc1ccc(Br)cc1	i
CCN(CC)C(=O)N(Cc1ccccc1)c1ccccn1	i
COCC(C)NC(=O)Cn1cnc2c1c(=O)n(C)c(=O)n2C (stereo not given)	i
Cc1c(NC(=O)C(c2ccccc2)c2ccccc2)cccc1-c1nc2cc(Cl)ccc2o1	i
CC(=O)c1cccc(NC(=O)CS(=O)(=O)c2ccccc2)c1	i
CCOc1ccc(Br)cc1C(=S)N1CCCC1	i
Cc1noc(C)c1C(=O)NN1CCOCC1	i
N#Cc1nc(/C=C/c2ccccc2)oc1N1CCOCC1	i
CCN1CCN(C2CC(=O)N(c3ccc(NC(C)=O)cc3)C2=O)CC1 (stereo not given)	2%
